T cruzi repl = inhibitors of intracellular T. cruzi growth, primary screen, luminescence, NIH3T3 host cells | T. cruzi beta-gal in NIH3T3, 90 h | inhibition, % (test concentration not listed) | 300,000 compounds, 1.4% hits;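 active = mean inhibition across valid replicates above about 55%, limit read from the data; inconclusive = mean below that limit but half or more replicates reach it; inactive = mean below it, under half of replicates reach it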;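 note: signal also drops with host cell toxicity which is not excluded here; 0% = plate median of DMSO wells and 100% = zero luminescence signal; higher percent means less beta-gal luminescence so fewer parasites; stock transfer was 50 nL into about 50 µL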
Beta apoptosis = inhibitors of cytokine-induced beta cell apoptosis, primary screen, luminescence | protection from apoptosis, % (concentration not given with the values) | 300,000 compounds, 0.8% hits | INS-1E cytokine-induced death, ATP luminescence, 48 h; percent of positive-control rescue, neutral wells zero | AID 435005, 2010;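 active = all replicates at 75% or more, or half of them and the mean; inconclusive = half reach 75% but not the mean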;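 note: 0% = cytokine-treated negative control wells and 100% = positive control rescue; higher means more ATP so stronger rescue from cytokine killing; wells of about 40 µL received 100 nL stock; the first replicate is given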
Ecoli rRNA inh = reduced GFP signal of wild-type E. coli, primary screen, bacterial rRNA inhibitor project, GFP/RFP fluorescence, OD600, single point | 350,000 compounds, 1.6% hits | AID 720706, 2013 | E. coli WT GFP vs humanized-ribosome RFP mutants, 24 h; hits give low values; DMSO median 0, no signal -100 | GFP signal change (wild-type ribosome), % (concentration not given with the values);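 active = significant combined selectivity score with lowered wild-type GFP, culture density cut under 30%, mutant RFP and density less affected; inactive = any of these conditions unmet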; note: one replicate is shown; some compounds called inactive have numbers as strong as hits
RanGTP-Impb inh = inhibitors of RanGTP-importin-beta interaction, primary screen, biochemical, FRET, CFP-Ran, YFP-importin-beta, homogeneous. Ran GTPase (GTP-bound) - importin-beta complex. cell-free CFP-Ran/YFP-importin-beta FRET ratio. inhibition, % (concentration not given with the values). 300,000 compounds, 1.1% hits;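 active = most replicates above 15%; inconclusive = exactly half above 15%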;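 note: 0% = DMSO wells and 100% = Ran loaded with GDP instead of GTP; wells of about 40 µL received 100 nL stock; the first replicate is given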
Calb FLC = C. albicans growth inhibition with fluconazole, primary screen, CaCi-2 strain, Alamar Blue fluorescence | C. albicans CaCi-2 (fluconazole-resistant clinical isolate) + fluconazole, 48 h | growth inhibition, % (no concentration beside the values) | 300,000 compounds, 0.57% hits | AID 1979, 2009;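 active = most replicates above 75%; inconclusive = exactly half above 75%; inactive = most below 75%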;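 note: all wells also contain fluconazole at 8 µg/ml as a sub-toxic cotreatment; 0% = median of DMSO wells and 100% = median of geldanamycin control wells; wells of about 8 µL received 7.5 nL stock; the first replicate is given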
AF4-AF9 inh = inhibitors of AF4 peptide binding to AF9, primary screen, biochemical, AlphaScreen, biotin-AF4 peptide, FLAG-AF9, single point; inhibition, % at 10 µM; Protein AF-9 (Homo sapiens), P42568; 350,000 compounds, 0.47% hits;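 active = every replicate reaching a set inhibition limit, whatever the replicate mean, cut at about 25% in these data; inconclusive = mean inhibition reaches that limit but some replicates miss it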;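 note: 0% = plate neutral control median and 100% = total signal loss; the record names both 10 and 1 µM as test concentration; the first replicate is given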
Target sequence (P42568 whole entry, looked up): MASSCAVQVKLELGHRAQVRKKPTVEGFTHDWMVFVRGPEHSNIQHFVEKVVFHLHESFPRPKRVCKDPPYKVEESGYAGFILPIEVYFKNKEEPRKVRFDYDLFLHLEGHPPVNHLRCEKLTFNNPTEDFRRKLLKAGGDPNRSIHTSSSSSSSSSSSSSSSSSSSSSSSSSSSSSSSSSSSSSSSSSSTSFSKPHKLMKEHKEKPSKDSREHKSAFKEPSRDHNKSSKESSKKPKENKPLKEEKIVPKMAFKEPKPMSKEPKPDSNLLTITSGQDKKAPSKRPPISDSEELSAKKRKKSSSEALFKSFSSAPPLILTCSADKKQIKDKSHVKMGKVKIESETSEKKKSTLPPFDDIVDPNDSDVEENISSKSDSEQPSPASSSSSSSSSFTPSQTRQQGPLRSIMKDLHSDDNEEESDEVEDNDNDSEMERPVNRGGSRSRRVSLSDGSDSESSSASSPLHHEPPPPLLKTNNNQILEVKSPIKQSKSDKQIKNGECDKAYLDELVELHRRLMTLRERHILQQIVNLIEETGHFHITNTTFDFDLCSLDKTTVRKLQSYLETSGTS
ALR H2O2 inh = inhibitors of human ALR sulfhydryl oxidase, primary screen, biochemical, H2O2 detection, HRP-luminol luminescence, single point | FAD-linked sulfhydryl oxidase ALR (Homo sapiens), P55789 | purified ALR, DTT oxidation | inhibition, % (no concentration beside the values) | 290,000 compounds, 3.8% hits;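 active = mean and each replicate at 75% or more; inconclusive = only one of the two met; inactive = neither met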;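 note: stock transfer was 7.5 nL into about 7.5 µL; 0% = neutral wells and 100% = wells with inactivated enzyme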
Target sequence (P55789 whole entry, looked up): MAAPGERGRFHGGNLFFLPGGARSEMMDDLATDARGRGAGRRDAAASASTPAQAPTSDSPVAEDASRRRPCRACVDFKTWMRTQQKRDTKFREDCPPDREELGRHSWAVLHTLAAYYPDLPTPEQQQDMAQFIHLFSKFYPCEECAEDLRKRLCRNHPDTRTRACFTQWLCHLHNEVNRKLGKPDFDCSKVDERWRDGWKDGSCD
FGF22 binding = binders of human FGF22 protein, primary screen, FGF22 synaptogenesis inhibitor project, biophysical, thermal shift, single point. Fibroblast growth factor 22 (Homo sapiens), Q9HCT0. recombinant FGF22 thermal shift, SYPRO orange fluorescence; percent of sucrose octasulfate shift, DMSO zero. calls only at 9.99 µM. 340,000 compounds, 1.5% hits. AID 651658, 2012;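 active = melting point raised past a set limit in the mean and every replicate; inconclusive = no clear call; three in four hits are not shown here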
Target sequence (Q9HCT0 whole entry, looked up): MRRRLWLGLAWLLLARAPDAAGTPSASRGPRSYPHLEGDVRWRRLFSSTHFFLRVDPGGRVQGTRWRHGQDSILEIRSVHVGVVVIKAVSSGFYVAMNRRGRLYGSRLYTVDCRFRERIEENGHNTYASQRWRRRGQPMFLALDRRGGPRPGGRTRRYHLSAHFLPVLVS
Ecoli rRNA inh OD600 = recorded beside Ecoli rRNA inh, whose call it bears; OD600 change, %; measured here: OD600 growth;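 optical density of the mix in the first replicate; 0 = DMSO median and -100 = no signal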
Ecoli rRNA inh RFP = also measured in Ecoli rRNA inh; calls as there; RFP signal change, %; measured here: RFP humanized mutant strains;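 first replicate; 0 = DMSO median and -100 = no signal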
An asterisk follows results filed as active; i = inactive; ? = inconclusive; . = no result given.

Molecule | T cruzi repl | Beta apoptosis | Ecoli rRNA inh | Ecoli rRNA inh OD600 | Ecoli rRNA inh RFP | RanGTP-Impb inh | Calb FLC | AF4-AF9 inh | ALR H2O2 inh | FGF22 binding
COc1ccc(NC2CCCN(C(=O)CSc3ccccc3)C2)cc1 (stereo not drawn) | 6 | -2 | -8 | -11 | 3.1 | 2.0 | -16 | 11 | 99* | i
COc1ccccc1N1CCN(C(=O)c2cc(N3C(=O)C4C5CCC(C5)C4C3=O)ccc2Cl)CC1 (stereo not drawn) | 7 | 4 | . | . | . | 3.3 | 16 | . | 9 | .
CCn1c(-c2ccc(C)cc2)nn(CC(=O)NCCc2ccccc2)c1=S | -112 | 127* | . | . | . | ? | 3 | . | -6 | .
COc1ccc(CN2CCN(C(=O)c3ccc(CNS(=O)(=O)c4ccc(C)cc4)cc3)CC2)c(OC)c1OC | -13 | 4 | -18 | -14 | -0.4 | 3.2 | 2 | 2.1 | -1 | i
O=C(NCC1CCCN1S(=O)(=O)c1ccccc1)C(=O)NC1CC1 (stereo not drawn) | -11 | -5 | 10 | 13 | 0.4 | -0.6 | 2 | -25 | 6 | i
COc1ccccc1CNS(=O)(=O)c1ccc(-c2cnc(C3CC3)o2)cc1 | -12 | 19 | -3 | -39 | -2.5 | 1.8 | 18 | 1.2 | -2 | i
Cc1cc(C(=O)NC2CC(C)(C)Cc3c2cnn3-c2ccccc2)n[nH]1 (stereo not drawn) | 8 | 1 | 7 | 4 | 3.0 | -0.1 | -1 | -0.6 | 92* | i
COc1cccc(C2CC(c3cccs3)=NN2C(=O)CSc2nc3c(cnn3-c3ccc(F)cc3)c(=O)[nH]2)c1OC (stereo not drawn) | -6 | 6 | . | . | . | 4.6 | 37 | . | -8 | .
COc1ccc(/C=C2\SC(=S)N(CC(=O)Nc3nnc(C)s3)C2=O)cc1 | -28 | 16 | 0 | 14 | -6.1 | 8.0 | 0 | 3.6 | -5 | i
COc1cc(/C(O)=C(\C#N)c2nc3ccccc3[nH]2)cc(OC)c1OC | 0 | 2 | -12 | -6 | -2.8 | 40* | 18 | -5.9 | 14 | i
COc1ccc(-n2c(-c3ccc(F)cc3)cnc2SCC(=O)NCc2ccco2)cc1 | 32 | -7 | . | . | . | 4.9 | 1 | . | -12 | .
COC(=O)c1c(NC(=S)Nc2ccc(C(=O)N3CCOCC3)cc2)sc2c1CCC2 | -12 | -11 | 6 | 4 | 6.6 | 8.5 | -4 | -2.6 | . | i
CC(=O)c1ccc(OCCN2CCOCC2)cc1 | -5 | -3 | . | . | . | -1.1 | -28 | . | -7 | .
CCOC(=O)c1cnc2ccc(C)cc2c1Nc1ccc(N2CCOCC2)cc1 | 24 | 0 | . | . | . | 0.8 | 96* | . | 98* | .
COc1ccccc1NC(=O)CN1C(=O)CSC(C)C1=O (stereo not drawn) | -7 | -1 | 10 | 12 | -0.8 | -0.4 | ? | -2.2 | -14 | i
CCOc1ccccc1N(CC(=O)NC1CCCCC1)C(=O)CCCC(=O)Nc1ccccn1 | 10 | -1 | . | . | . | 4.3 | -5 | . | -19 | .
CCCCN(C(=O)c1cccc(C)c1)c1c(N)n(CCC)c(=O)[nH]c1=O | -9 | -2 | . | . | . | 4.2 | -1 | -0.1 | -2 | i
C/C(=N\NS(=O)(=O)c1ccccc1)c1ccc2c(c1)OCO2 | 9 | 0 | 23 | 14 | 3.5 | 5.7 | 5 | -0.9 | 33 | i
Cc1nc2ccc(-c3ccccc3)cc2o1 | 1 | -3 | . | . | . | ? | -4 | . | 96* | .
CNS(=O)(=O)c1cn(CC(=O)NCc2ccc(N(C)C)cc2)cc1S(=O)(=O)NC | -2 | -2 | 11 | 18 | 1.1 | 2.3 | -5 | 4.4 | 57 | i
COc1ccc(/C=C2\N=C(SC)N(c3ccccc3OC)C2=O)cc1 | 11 | 21 | 7 | -2 | 0.8 | 2.8 | 3 | 13 | . | i
Cc1nc2ccccc2nc1N1CCCC1 | -7 | 0 | 0 | -6 | -3.4 | 7.9 | 3 | 14 | -7 | i
O=C(COc1ccccc1)N1CCN(C(=O)Cc2ccccc2)CC1 | -1 | -10 | . | . | . | ? | 20 | . | -9 | .
Cc1ccc(/C=N/NC(=O)NC23CC4CC(CC(C4)C2)C3)o1 | . | -3 | 16 | 10 | 4.0 | -3.0 | -26 | 17 | -20 | .
COc1ccc(-c2cc3cc(OC)c(OC)cc3c(C)n2)cc1 | -8 | -5 | 1 | 6 | 24 | 1.5 | -7 | -2.3 | 0 | i

Carrying on.
Molecule | T cruzi repl | Beta apoptosis | Ecoli rRNA inh | Ecoli rRNA inh OD600 | Ecoli rRNA inh RFP | RanGTP-Impb inh | Calb FLC | AF4-AF9 inh | ALR H2O2 inh | FGF22 binding
CC(=O)Nc1nc(CCN2C(=O)c3ccccc3C2=O)cs1 | 0 | 2 | 12 | 1 | 4.5 | 5.3 | -12 | -1.4 | 7 | i
COc1cc(CN(CCN(C)C)Cc2ccccc2)ccc1OCc1ccccc1 | 6 | 9 | -35 | -45 | -0.7 | 0.4 | -4 | 13 | -4 | i
COC(=O)c1ccc(S(=O)(=O)NNC(=O)COc2ccc(C)cc2)cc1 | -11 | -5 | . | . | . | 0.1 | -13 | . | . | .
COC(=O)[C@@]12CCCCN1[C@H](c1ccc(-c3ccccc3)cc1)[C@@H]1C(=O)N(C)C(=O)[C@@H]12 | 35 | -4 | 3 | -6 | -4.7 | -2.1 | -14 | -4.6 | -4 | i
Brc1ccc(-c2csc(N3CCc4ccccc4C3)n2)cc1 | 2 | -2 | . | . | . | -2.4 | -1 | . | -2 | .
Cc1ccc(C(=O)NCCNC(=O)c2ccco2)cn1 | -1 | -1 | 7 | -3 | -1.1 | -0.8 | -10 | 1.0 | 0 | i
CCC1CCCCN1CCCNC(=O)C1CCN(c2ncnc3c2nc2n3CCCCC2)CC1 (stereo not drawn) | 1 | -5 | -2 | 3 | -0.7 | -11 | 29 | -0.7 | -5 | i
O=C(Oc1ccc2ccccc2c1)C1CCC1 | -3 | . | 4 | -5 | -1.1 | 1.6 | -2 | 3.2 | -22 | i
O=S(=O)(Nc1ccc2c(c1)OCCO2)c1cccs1 | -11 | -5 | -12 | -22 | 2.9 | -1.0 | -10 | -36 | -5 | i
N#C/C=C(/N)N1CCN(c2ccc(Cl)c(Cl)c2)CC1 | 14 | -5 | . | . | . | -0.7 | 15 | . | 0 | .
COc1ccc(NC(=O)Nc2c(O)ccc3ccccc23)cc1 | -5 | -2 | -26* | -3.8* | 9.4* | -2.1 | 0 | -1.6 | -22 | i
Clc1ccc(C2CC(c3cccs3)n3ncnc3N2)cc1 (stereo not drawn) | -11 | -3 | -41* | -19* | -8.0* | 2.6 | 4 | . | -3 | i
O=C1CN(S(=O)(=O)c2cccc(C(=O)O)c2)c2ccccc2N1 | -9 | -3 | 0 | 2 | -1.2 | 3.2 | 13 | 6.2 | -8 | i
CCOC(=O)C1=C(CC)Nc2ccccc2N/C1=N\S(=O)(=O)c1ccccc1OC | . | 3 | -2 | -4 | -0.1 | . | . | -0.6 | 1 | i
CCOc1ccc(-c2n[nH]c(C)c2Oc2ccccc2OC)c(O)c1 | -13 | -5 | . | . | . | 2.2 | -32 | . | 1 | .
CC1(C#N)c2ccccc2C(Br)=CN1C(=O)c1ccccc1 (stereo not drawn) | -27 | 0 | -21 | -38 | -8.5 | -4.5 | -10 | 15 | -4 | i
CCOc1ccc(NC(=O)CN2CCN(C3c4ccccc4-c4ccccc43)CC2)cc1 | 21 | 0 | . | . | . | 2.3 | -4 | . | 2 | .
C/C=C\C=C/C(=O)Nc1cccc(C2=NOC3(C2)C[C@H](C(N)=O)N(C(=O)c2ccc(OC)cc2)C3)c1 (stereo partly drawn) | 0 | -8 | 6 | 3 | 8.9 | 2.4 | 0 | -12 | -1 | i
CCCCSc1nnc(-c2ccccc2N)c(=O)[nH]1 | 0 | -8 | -4 | 0 | 0.2 | -1.0 | -10 | -0.7 | -1 | .
CC(=O)c1ccc(NC(=O)C2CCN(S(=O)(=O)c3cccc4nonc34)CC2)cc1 | -13 | -13 | 3 | 8 | -4.4 | 4.3 | -7 | 0.5 | -3 | i
COc1ccc(Nc2oc(-c3ccc(Cl)cc3)nc2C#N)cc1 | 32 | 2 | . | . | . | -2.6 | 12 | . | 0 | .
CC1(C)CC(CC(=O)Nc2nccs2)(c2ccccc2)CCO1 (stereo not drawn) | -33 | -7 | -1 | 6 | 3.8 | 1.7 | -5 | -0.4 | -7 | i
O=C(C1CCC1)N1CCN(S(=O)(=O)c2ccccc2)CC1 | -9 | -1 | 16 | 9 | -1.1 | 5.7 | -1 | -0.5 | . | i
Cc1ccccc1NC(=O)C(C)c1cccc(C(=O)c2ccccc2)c1 (stereo not drawn) | -11 | -1 | . | . | . | 1.2 | -15 | . | -4 | .
Cc1ccc(-c2nc(N/N=C/c3cccc([N+](=O)[O-])c3)c3ccccc3n2)cc1 | 17 | 0 | . | . | . | 4.8 | -4 | . | -3 | .

Later entries
Molecule | T cruzi repl | Beta apoptosis | Ecoli rRNA inh | Ecoli rRNA inh OD600 | Ecoli rRNA inh RFP | RanGTP-Impb inh | Calb FLC | AF4-AF9 inh | ALR H2O2 inh | FGF22 binding
CCC(Oc1ccccc1)C(=O)Nc1ccc(S(=O)(=O)Nc2cnc3ccccc3n2)cc1 (stereo not drawn) | 2 | 0 | . | . | . | 2.0 | 11 | . | 7 | .
CCOc1ccccc1/C=C(/C#N)C(N)=O | -19 | -9 | 3 | 5 | 1.2 | 0.2 | . | -0.8 | 52 | i
CCOc1ccc(NS(=O)(=O)c2ccc(OCC(=O)NCc3ccncc3)cc2)cc1 | 3 | -2 | -5 | -15 | -1.9 | -4.2 | 3 | -3.6 | -15 | i
CN(C)C(=O)CSc1nnc(Cc2ccc([N+](=O)[O-])cc2)o1 | -4 | -4 | . | . | . | 0.0 | -1 | . | -40 | .
COC(=O)c1sc(NC(=O)c2ccncc2)nc1C | -1 | 4 | -1 | 6 | -4.2 | 5.6 | 2 | -3.7 | 27 | i
O=C(CN1C(=O)CSc2cc(S(=O)(=O)N3CCCCCC3)ccc21)NCCc1ccccc1 | 30 | 7 | . | . | . | ? | -2 | . | -1 | .
N#Cc1cccc(NC(=O)COC(=O)C2CCC2)c1 | -9 | 0 | 6 | 6 | 0.5 | -2.2 | -5 | -6.7 | 0 | i
COC(=O)c1sccc1NC(=O)c1ccoc1C | 11 | 2 | -12 | -8 | -5.3 | -2.9 | -3 | 0.6 | -15 | i
Cc1nc(N2CCN(C(=O)c3cccs3)CC2)c2c3c(sc2n1)CCCC3 | 11 | 11 | -27 | -60 | -3.0 | -1.5 | -6 | . | . | .

Some of the compounds tested; rates above refer to the full screens.
